# SARS PLpro yeast – SARS-CoV PLP inhibition in yeast; S. cerevisiae expressing SARS-CoV PLpro, growth rescue; control for the full effect not named in the record; Potency, µM (highest dose often 32.9 µM), for the others: top-dose activity, positive = growth rescue; 330,000 compounds, 0.19% hits; AID 485353; active means well fitted rising curve with a large enough effect; inconclusive means small, poorly fitted or top-dose-only effect; inactive means no such curve, though single readings can be large or run the other way; also: 0% is about no effect; nearly all actives have a fitted effect of over 55% in size; growth read by luminescence after 48 h
# RE007 growth inh – less growth of the S. pombe RE007 Vpr strain; Potency, µM (titrated, usually from 92.2 µM), inactives show at the highest dose activity change, negative = less growth; 360,000 compounds, 0.21% hits; S. pombe RE007 Vpr strain, BacTiter-Glo ATP luminescence, 24 h; control for the full effect not named in the record; active = well fitted falling curve with a large enough effect; inconclusive = small, poorly fitted or top-dose-only effect; inactive = no such curve, though single readings can be large or run the other way;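 also: % is scaled to controls: 0 for no effect and ±100 for the full control effect; nearly all actives have a fitted effect of over 50% in size; the assay follows cell death caused by Vpr and the record does not say whether a fall means rescue or toxicity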
#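 Fission yeast strain RE007, carrying one chromosomally integrated HIV-1 vpr copy, was seeded at OD 0.01 in PMG+AL medium with 23 nL pinned compound. After 24 h at 30 °C and 99% humidity, viability was read by BacTiter-Glo luminescence.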
# Marburg entry inh – inhibitors of Marburg virus binding or cell entry; 300,000 compounds, 1.8% hits; Potency, µM (titrated, usually from 37.8 µM), for the others: top-dose activity change, negative = inhibition, actives largely listed as inhibitors; Marburg virus pseudotyped entry inhibition, cell reporter; control for the full effect not named in the record; about a third of the inactives were read at about 46 µM; active = well fitted inhibition curve with a large enough effect; inconclusive = small, poorly fitted or top-dose-only effect, or effect the other way; inactive = flat fitted curve, though single readings scatter; tested in HEK293 cells; about a fifth of its hits are not listed in these tables; also: % is scaled to controls: 0 for no effect and ±100 for the full control effect; luciferase read-out
# Cruzain inh noDet – cruzain (T. cruzi) inhibition without detergent; P25779; purified cruzain, Z-FR-AMC fluorescence, no detergent; Potency, µM, for inactives: max response, negative = inhibition, hits mostly inhibitors; 200,000 compounds, 2.3% hits;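 also: plate controls were enzyme without inhibitor for no effect and buffer without enzyme for full effect; nearly all actives have a fitted effect of over 40% in size; top concentration of the series not given in the record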
# Target sequence (P25779 123-467 limits assumed): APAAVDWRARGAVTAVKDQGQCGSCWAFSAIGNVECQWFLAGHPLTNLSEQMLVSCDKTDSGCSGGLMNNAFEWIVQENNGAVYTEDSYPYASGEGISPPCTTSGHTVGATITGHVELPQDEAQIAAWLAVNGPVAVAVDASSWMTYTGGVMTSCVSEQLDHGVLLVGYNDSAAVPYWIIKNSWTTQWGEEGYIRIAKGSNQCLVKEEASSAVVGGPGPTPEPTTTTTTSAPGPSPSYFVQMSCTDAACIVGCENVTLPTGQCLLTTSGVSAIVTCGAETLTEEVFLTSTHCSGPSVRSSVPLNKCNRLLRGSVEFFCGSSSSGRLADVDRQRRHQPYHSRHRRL
#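 Detergent-free condition (0.00005% Triton X-100) in acetate buffer pH 5.5 with DTT. 1.5 nM enzyme and compound were pre-mixed 15 min, then 2 uM Z-FR-AMC substrate added; reaction progress from fluorescence change between first and third reads (60 s).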
# 2A StopGo – FMDV 2A StopGo reporter, luciferase signal. human cells with a luciferase reporter of 2A StopGo recoding; control for the full effect not named in the record. Potency, µM (top dose mostly 57.9 µM), for the others: at the top dose signal change, negative = less light. 410,000 compounds, 1.2% hits. AID 1159524; active = well fitted falling curve with a large enough effect; inconclusive = small, poorly fitted or top-dose-only effect; inactive = no such curve, though single readings can be large or run the other way; tested in HEK293T cells; also: % is scaled to controls: 0 for no effect and ±100 for the full control effect; nearly all actives have a fitted effect of over 45% in size; luciferase light after 4 h
# LASV entry inh – inhibitors of Lassa virus binding or cell entry; Lassa virus pseudotype entry inhibition, cell reporter; control for the full effect not named in the record; AID 540256; 300,000 compounds, 1.2% hits; Potency, µM (titrated, usually from 37.9 µM), for the others: top-dose activity change, negative = inhibition, hits mostly inhibitors; active means well fitted inhibition curve with a large enough effect; inconclusive means small, poorly fitted or top-dose-only effect, or effect the other way; inactive means flat fitted curve, though single readings scatter; tested in HEK293 cells; also: % is scaled to controls: 0 for no effect and ±100 for the full control effect; nearly all actives have a fitted effect of over 50% in size; luciferase read-out
# NS1 function inh – blocks influenza NS1 protein function. S. cerevisiae slowed by influenza A NS1, growth recovery by OD600. Potency, µM (series often up to 46.1 µM), without a hit: at the highest dose activity, positive = more growth. 270,000 compounds, 0.4% hits; active means well fitted rising curve with a large enough effect; inconclusive means small, poorly fitted or top-dose-only effect; inactive means no such curve, though single readings can be large or run the other way; also: nearly all actives have a fitted effect of over 50% in size
#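 Read-out: OD600 growth recovery of NS1-expressing budding yeast. Cells grown overnight at 30C in -URA glucose medium, washed, resuspended and diluted 1:100 in 2% galactose assay medium, pH 6.0. Same strain lacking NS1 served as positive control.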
# Cruzain Triton – cruzain (T. cruzi) inhibition with detergent; purified cruzain, Z-FR-AMC fluorescence, 0.01% Triton; Potency, µM, without a hit: max response, negative = inhibition, hits mostly inhibitors; 200,000 compounds, 0.43% hits;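 also: plate controls were neutral wells for no effect and buffer without enzyme for full effect; nearly all actives have a fitted effect of over 40% in size; top concentration of the series not given in the record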
#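 Purified cruzain (1.5 nM final) was preincubated with compounds for 15 min at room temperature in 100 mM sodium acetate pH 5.5, 5 mM DTT, 0.01% Triton X-100. Reaction started with 2 uM Z-FR-AMC; AMC fluorescence change over 60 s gave activity.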
# * marks the source's active call; other numbers are inactive results; ? = inconclusive; . = no result given; [ ] = another dose, or the depositor's remark. Unless noted, calls follow the shape of the dose curve; as a rule, active = well fitted curve in the direction sought with a large enough effect; inconclusive = small, poorly fitted or top-dose-only effect, or another doubt; inactive = no such curve, though single readings can be large; an effect the other way counts as inactive or inconclusive. Potency is read from the fitted curve at half-maximal effect.
1) CCN(CC)S(=O)(=O)c1cccc(C(=O)OCC(=O)Nc2ccccc2OC(F)F)c1
2) Cc1ccc(-c2nc(CS(=O)CC(=O)NC3CCCC(C)C3C)c(C)o2)cc1 (stereo not given)
3) Fc1ccccc1Cn1nnc2c(NCc3ccccn3)ncnc21
4) COc1ccccc1-n1c(SCC(=O)Nc2nnc(C)s2)nc2c(c1=O)SCC2
5) CC1=C(C(=O)Nc2cccc(C)c2C)C(c2cccs2)NC(=S)N1 (stereo not given)
6) NC(=O)/C(=C\c1ccccc1)NC(=O)/C=C/c1ccccc1
screen / no.	1	2	3	4	5	6
LASV entry inh	?	-5.2%[46.1 µM]	13.4%	-15.4%	0.3%	8.3%
NS1 function inh	-7.0%	-4.2%	-16.5%	-5.7%	?	4.5%
SARS PLpro yeast	-5.2%	-1.6%	-8.1%	21.2%	16.2%	-15.5%
Cruzain Triton	-2.5%	.	2.3%	22.4µM*	-1.0%	-3.4%
2A StopGo	28.4%	-0.8%	-9.2%	-14.8%	-15.4%	-17.5%
RE007 growth inh	-18.0%	9.4%	-7.6%	9.9%	-24.9%	8.4%
Cruzain inh noDet	-2.6%	.	1.7%	-5.4%	5.4%	7.0%
Marburg entry inh	-4.1%	-9.9%[46.1 µM]	19.5%	-12.7%	-3.9%	9.9%

7) CCn1c(SCC(=O)N/N=C/c2ccccc2OCC(=O)O)nnc1-c1ccc(C)cc1
8) COc1c(S(=O)(=O)N2CCN(C)CC2)ccc(Cl)c1Cl
9) CCOc1ccc(NC(=O)CSc2oc(-c3ccco3)nc2S(=O)(=O)c2ccccc2)cc1
10) CC(C)(C)C1=NN(C(=O)c2ccccc2)C(O)(C(C)(C)C)C1 (stereo not given)
11) Fc1cccc(Cl)c1CSc1ccc(-c2ccco2)nn1
12) CSc1ccc(CCNC(=O)CCn2c(=O)c3cccn3c3cccnc32)cc1
screen / no.	7	8	9	10	11	12
LASV entry inh	.	-0.7%[46.1 µM]	-0.9%[46.1 µM]	?	1.7%	3.8%[46.1 µM]
NS1 function inh	0.0%	9.2%	.	-2.8%	.	.
SARS PLpro yeast	0.1%	6.4%	.	0.4%	-8.4%	.
Cruzain Triton	.	.	-5.7%	6.0%	.	0.7%
2A StopGo	-10.8%	-6.1%	?	-9.6%	63.4%[activator]	8.9%
RE007 growth inh	10.2%	11.1%	.	0.0%	-0.8%	.
Cruzain inh noDet	.	.	12.1%	1.7%	.	-8.7%
Marburg entry inh	.	0.7%[46.1 µM]	25.8%[46.1 µM]	-1.1%	-25.9%[46.1 µM]	.

# Some of the entries so far, as tab-separated lines.
No.	Molecule	LASV entry inh	NS1 function inh	SARS PLpro yeast	Cruzain Triton	2A StopGo	RE007 growth inh	Cruzain inh noDet	Marburg entry inh
7	CCn1c(SCC(=O)N/N=C/c2ccccc2OCC(=O)O)nnc1-c1ccc(C)cc1	.	0.0%	0.1%	.	-10.8%	10.2%	.	.
8	COc1c(S(=O)(=O)N2CCN(C)CC2)ccc(Cl)c1Cl	-0.7%[46.1 µM]	9.2%	6.4%	.	-6.1%	11.1%	.	0.7%[46.1 µM]
9	CCOc1ccc(NC(=O)CSc2oc(-c3ccco3)nc2S(=O)(=O)c2ccccc2)cc1	-0.9%[46.1 µM]	.	.	-5.7%	?	.	12.1%	25.8%[46.1 µM]
10	CC(C)(C)C1=NN(C(=O)c2ccccc2)C(O)(C(C)(C)C)C1 (stereo not given)	?	-2.8%	0.4%	6.0%	-9.6%	0.0%	1.7%	-1.1%

# (more compounds)
13) Cc1ccc(-c2nnc(SC(C)C#N)n2N)cc1 (stereo not given)
14) COCCn1c(SCC(=O)N2CCc3ccccc32)nc2c(c1=O)SC(C)C2 (stereo not given)
15) O=C(CSc1n[nH]c(-c2ccco2)n1)Nc1ccccc1
16) CC(CC1CC(C)(C)OC1=O)C(=O)Nc1nncs1 (stereo not given)
17) Cc1cc(C)n(-c2nc(C)nc3c2cnn3-c2ccccc2)n1
18) O=C(O)c1cnn2c(C(F)F)cc(C3CC3)nc12
screen / no.	13	14	15	16	17	18
LASV entry inh	8.7%	.	-18.5%	29.4%	3.3%	0.6%
NS1 function inh	-1.2%	-49.3%	.	2.0%	-0.3%	1.6%
SARS PLpro yeast	0.2%	-0.9%	-3.8%	5.5%	-7.2%	-17.2%
Cruzain Triton	-4.2%	.	.	4.7%	-0.9%	-2.7%
2A StopGo	17.7%	-4.2%	-14.0%	11.1%	14.5%	-6.9%
RE007 growth inh	-7.4%	23.1%	7.0%	2.6%	8.3%	-4.9%
Cruzain inh noDet	-8.8%	.	.	1.1%	-2.1%	2.8%
Marburg entry inh	7.8%	0.8%	-1.2%	24.8%	?	13.1%

# Gathered by group: those above containing two or more sulfur atoms
4) COc1ccccc1-n1c(SCC(=O)Nc2nnc(C)s2)nc2c(c1=O)SCC2
5) CC1=C(C(=O)Nc2cccc(C)c2C)C(c2cccs2)NC(=S)N1 (stereo not given)
9) CCOc1ccc(NC(=O)CSc2oc(-c3ccco3)nc2S(=O)(=O)c2ccccc2)cc1
14) COCCn1c(SCC(=O)N2CCc3ccccc32)nc2c(c1=O)SC(C)C2 (stereo not given)
screen / no.	4	5	9	14
LASV entry inh	-15.4%	0.3%	-0.9%[46.1 µM]	.
NS1 function inh	-5.7%	?	.	-49.3%
SARS PLpro yeast	21.2%	16.2%	.	-0.9%
Cruzain Triton	22.4µM*	-1.0%	-5.7%	.
2A StopGo	-14.8%	-15.4%	?	-4.2%
RE007 growth inh	9.9%	-24.9%	.	23.1%
Cruzain inh noDet	-5.4%	5.4%	12.1%	.
Marburg entry inh	-12.7%	-3.9%	25.8%[46.1 µM]	0.8%

# Full records as entered above. Screens in order: LASV entry inh	NS1 function inh	SARS PLpro yeast	Cruzain Triton	2A StopGo	RE007 growth inh	Cruzain inh noDet	Marburg entry inh
# CC(CC1CC(C)(C)OC1=O)C(=O)Nc1nncs1 (stereo not given) reads 29.4%	2.0%	5.5%	4.7%	11.1%	2.6%	1.1%	24.8%
# Cc1cc(C)n(-c2nc(C)nc3c2cnn3-c2ccccc2)n1 reads 3.3%	-0.3%	-7.2%	-0.9%	14.5%	8.3%	-2.1%	?

# More records follow:
19) Cc1ccc2c(c1)C(C)(c1ccccc1)CC(C)(C)N2C(=O)c1ccc(F)cc1 (stereo not given)
20) Cc1cc(C)n(C(=O)CNC(=O)c2ccc(Cl)cc2Cl)n1
21) CSc1ccc(CNc2ncc(-c3ccccc3)n2C)cc1
22) O=C(NCC(c1ccc2c(c1)OCO2)N1CCOCC1)c1ccccc1 (stereo not given)
23) Cc1ccccc1OCC(=O)N/N=C/c1ccncc1
24) Cc1ccccc1C1NC(=S)NC2=C1C(=O)CCC2 (stereo not given)
screen / no.	19	20	21	22	23	24
LASV entry inh	20.6%[46.1 µM]	-2.8%	-1.2%[46.1 µM]	3.9%[46.1 µM]	-3.7%	-8.0%[46.1 µM]
NS1 function inh	.	-28.4%	.	.	-3.7%	-1.4%
SARS PLpro yeast	.	-4.8%	.	.	-5.9%	-1.8%
Cruzain Triton	-0.4%	.	-0.2%	0.5%	5.9%	.
2A StopGo	?	24.7%	?	-2.6%	3.8%	-4.7%
RE007 growth inh	.	9.4%	.	.	-14.7%	-9.8%
Cruzain inh noDet	-4.3%	.	0.7%	-3.6%	-0.8%	.
Marburg entry inh	.	0.4%[46.1 µM]	.	.	6.7%	15.0%[46.1 µM]

25) Cc1ccc(CC2C(=O)N(c3ncccn3)C(=O)C2C)cc1 (stereo not given)
26) c1ccc2c(c1)OCC(CNCC1COc3ccccc3O1)O2 (stereo not given)
27) CCC(=O)Nc1ccc(C(=O)Cn2ncc(Cl)c(Cl)c2=O)cc1
28) Cc1cc(NC(=O)c2cc(Cl)ccc2Cl)no1
29) Cc1ccc(C)c(N2CCN(C(=O)c3ccc(N4CCCC4=O)cc3)CC2)c1
30) CCCC(=O)Nc1nnc(-c2ccc3c(c2)OCO3)s1
screen / no.	25	26	27	28	29	30
LASV entry inh	.	6.7%[46.1 µM]	.	6.3%	.	.
NS1 function inh	5.5%	-32.1%	2.8%	-10.2%	-34.1%	-4.7%
SARS PLpro yeast	3.0%	-13.0%	-1.8%	17.4%	-0.8%	-3.7%
Cruzain Triton	-0.6%	.	.	-1.5%	.	.
2A StopGo	-9.3%	-12.9%	-16.4%	.	?	48.5%[activator]
RE007 growth inh	-3.8%	-28.3%	3.9%	16.9%	0.8%	22.2%
Cruzain inh noDet	9.0%	.	.	-6.2%	.	.
Marburg entry inh	.	12.4%[46.1 µM]	.	-5.5%	.	.

31) O=C(NCc1ccccc1)C1CCCN(c2nc3ccsc3c(=O)s2)C1 (stereo not given)
32) COc1cc2c(OC)cccc2cc1C(=O)O
33) CCOC(=O)C1CCCN(Cc2nc(C3CC3)no2)C1 (stereo not given)
34) C=CCN(C(=O)c1csnn1)C(C(=O)NCc1ccc(F)cc1)c1ccccc1F (stereo not given)
35) COCCNC(=S)NNc1ccccc1[N+](=O)[O-]
screen / no.	31	32	33	34	35
LASV entry inh	21.9%[46.1 µM]	5.4%	3.4%	?	?
NS1 function inh	.	-25.0%	1.4%	5.7%	4.6%
SARS PLpro yeast	-4.1%	-0.8%	-1.7%	0.3%	-0.3%
Cruzain Triton	.	5.0%	.	.	.
2A StopGo	-19.0%	14.8%	26.6%	-6.5%	32.8%[activator]
RE007 growth inh	-5.2%	11.7%	5.2%	-5.8%	?
Cruzain inh noDet	.	14.9%	.	.	.
Marburg entry inh	-4.0%[46.1 µM]	7.8%	14.4%	?	3.9%[46.1 µM]
